GIV Gai3 FP: inhibitors of GIV peptide binding to Galpha-i3, primary screen, biochemical, fluorescence polarization, FITC-GIV GBA peptide, rat Galphai3; percent of control (FP), % (concentration not given with the values); AID 1224905, 2016; 90 min; stronger effect = lower value; scaled: aluminum fluoride 0%, vehicle 100%; 210,000 compounds, 0.42% hits;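 active = replicate mean at 85% of control or lower, very high polarization wells dropped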;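 also: wells of about 15 µL received 100 nL stock; the first replicate is given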
Target sequence (P08753 whole entry, looked up): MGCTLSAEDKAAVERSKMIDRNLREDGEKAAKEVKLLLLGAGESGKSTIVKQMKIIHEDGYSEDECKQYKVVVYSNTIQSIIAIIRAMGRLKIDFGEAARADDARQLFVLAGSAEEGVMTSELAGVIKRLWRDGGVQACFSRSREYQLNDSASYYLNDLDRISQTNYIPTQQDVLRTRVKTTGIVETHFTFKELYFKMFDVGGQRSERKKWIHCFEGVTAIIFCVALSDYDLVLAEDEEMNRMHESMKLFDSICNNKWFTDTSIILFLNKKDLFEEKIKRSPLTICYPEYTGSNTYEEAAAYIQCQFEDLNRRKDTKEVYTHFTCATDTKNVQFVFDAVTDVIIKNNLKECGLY
HCMV NEC inh: inhibitors of HCMV UL50-UL53 interaction, biochemical, HTRF; normalized percent inhibition; inhibition, % (test concentration not listed); HCMV UL50-UL53 nuclear egress complex (human cytomegalovirus); 190,000 compounds, 0.15% hits;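 active = both replicates at 50% or more, plus weaker picks with an unusually low signal ratio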;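 also: stock transfer was 100 nL into about 20 µL; 0% = negative control wells and 100% = wells with untagged competitor protein; inactives centre near -12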
Sa growth 42C: S. aureus growth inhibition at 42 and 30 °C, primary screen, LtaS inhibitor project, RN4220, two temperatures. OD600, 20 h, 42 °C; stronger effect = lower value. relative growth, % (test concentration not listed). 170,000 compounds, 0.53% hits;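 active = growth at 42 °C up to 50% and 20 or more points under that at 30 °C, or under 10% at both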;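 also: 300 nL library stock went into each well; scaled to the means of positive and negative controls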
Sa growth 42C second temp: second read-out of Sa growth 42C, no call of its own (marks repeat the call); relative growth, %; measured here: growth at 30 °C;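 optical density after 20 h as mean of two plates; 100% = untreated growth and lower means inhibition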
Starred values were filed as active, the others as inactive; / = not tested or not shown; & = joins results of further samples.

Values run as follows: GIV Gai3 FP	HCMV NEC inh	Sa growth 42C	Sa growth 42C second temp
1) CC(C)c1ccc(NC(=O)C2CCC(CNS(=O)(=O)c3ccc4c(c3)CCCC(=O)N4)CC2)cc1 (stereo not given)
    98	/	93	91
2) N#Cc1ccc(/C=N/n2c(-c3ccc(OC(F)F)cc3)csc2=NCCN2CCOCC2)cc1
    /	30	94	71
3) Cc1ccc(C2=Nc3ccccc3N=C(c3cc(C)ccc3O)C2)cc1
    115&104	16	/	/
4) Cc1nc(N2CCCCCC2)c2ccccc2n1
    108	/	92	70
5) O=C(CCn1cnc2onc(-c3ccc(F)cc3)c2c1=O)N1CCN(c2ccccc2F)CC1
    107	/	85	96
6) COc1ccc(C2CC(C(F)(F)F)n3nc(C(=O)NCCCn4ccnc4)c(Cl)c3N2)cc1OC (stereo not given)
    101	0	/	/
7) CCC(CC)C(=O)N1CCC2(CC1)Nc1cc(F)ccc1-n1cccc12
    105	-42	/	/
8) Cc1ccc(CNC(=O)CC2(CC(=O)O)CCCC2)cc1
    /	-26	116	93
9) Cc1ccc(CNC(=O)c2ccc3c(c2)nc(C)n3-c2cc(C)cc(C)c2)cc1
    102	/	105	52
10) Cc1cc(=O)nc2c3ccccc3n(C(C)C(=O)N3CCC(C)CC3)n12 (stereo not given)
    107	1	107	97
11) CCOC(=O)c1c(-c2ccccc2)oc2cc(CN(C)C)c(O)c(CN(C)C)c12
    101	-3	66	84
12) Cc1sc(NC(=O)Cn2c(=O)cnc3ccccc32)c(C#N)c1C
    /	-9	95	95
13) CCc1ccc(CNC(=O)c2cnc3c(C)cccn3c2=O)cc1
    96	/	86	88
14) CCOC(=O)c1cccc(NC(=O)C(CC(C)C)NC(=O)C2CCCCC2)c1 (stereo not given)
    99	-26	84	85
15) Cc1ccc(C)c(N2CCN(C(=O)Cn3c(=O)oc4ccccc43)CC2)c1
    110	4	101	96
16) O=C1c2cccnc2C(=O)N1Cc1ccc(S(=O)(=O)N2CCOc3ccccc32)cc1
    101	-36	109	89
17) COc1ccccc1Nc1c2c(nc3ccc(NC(=O)/C=C/c4cc(OC)c(OC)c(OC)c4)cc13)CCCC2
    105	-29	89	55
18) CCOC(=O)c1[nH]c(C)c(S(=O)(=O)N2CCC(C)CC2)c1C
    106	-25	/	/
19) COc1ccc(/C(N)=N/OC(=O)Oc2ccccc2)cc1
    104	-10	72	87
20) CN(C)C(=O)NC(c1ccccc1)c1ccccc1
    101	-15	98	104
21) CCOc1cc(C(=O)OCc2cc(=O)n3nc(C4CC4)sc3n2)cc(OCC)c1OCC
    111	/	73	79
22) CCOC(=O)c1c(/N=C/N(C)C)sc2c1CCC2
    99	4	86	78
23) O=C(CO/N=C/c1ccccc1O)N1CCc2ccccc21
    /	14	102	91
24) CCCc1nn(C(=O)c2ccco2)cc1C(=O)OCC
    98	-2	112	88
25) CCSc1nc2n(n1)C(c1ccc(C(=O)O)cc1)C(C(=O)Nc1ccccc1C)=C(C)N2 (stereo not given)
    100&97	/	130	93
26) Cc1ccc(N/C=C2\CCCCC2=O)nc1
    /	-55	96	90
27) CCOc1ccc(CN2C(=O)c3ccccc3Sc3ccc(C(=O)N4CCOCC4)cc32)cc1
    103	/	118	90
28) Nc1c(C(=O)O)nnn1Cc1ccccc1
    98	-20	86	76
29) O=C(CCCn1nnc2cc(S(=O)(=O)N3CCCCC3)ccc21)N1CCN(c2ccccn2)CC1
    110	18	/	/
30) CC(=C\c1ccccc1)/C(C)=N/O
    102	-32	111	91

Quoted at random: 4 entries already listed, in no set order.
Values run as follows: GIV Gai3 FP	HCMV NEC inh	Sa growth 42C	Sa growth 42C second temp
18) CCOC(=O)c1[nH]c(C)c(S(=O)(=O)N2CCC(C)CC2)c1C
    106	-25	/	/
28) Nc1c(C(=O)O)nnn1Cc1ccccc1
    98	-20	86	76
1) CC(C)c1ccc(NC(=O)C2CCC(CNS(=O)(=O)c3ccc4c(c3)CCCC(=O)N4)CC2)cc1 (stereo not given)
    98	/	93	91
8) Cc1ccc(CNC(=O)CC2(CC(=O)O)CCCC2)cc1
    /	-26	116	93

Three structures already listed, sorted by heavy-atom count, ascending:
Values run as follows: GIV Gai3 FP	HCMV NEC inh	Sa growth 42C	Sa growth 42C second temp
26) Cc1ccc(N/C=C2\CCCCC2=O)nc1
    /	-55	96	90
12) Cc1sc(NC(=O)Cn2c(=O)cnc3ccccc32)c(C#N)c1C
    /	-9	95	95
27) CCOc1ccc(CN2C(=O)c3ccccc3Sc3ccc(C(=O)N4CCOCC4)cc32)cc1
    103	/	118	90

(further entries)
Values run as follows: GIV Gai3 FP	HCMV NEC inh	Sa growth 42C	Sa growth 42C second temp
31) COc1ccc(-c2cc(-c3ccccc3)nc(SCC(=O)Nc3ccccc3F)c2C#N)cc1
    106	-46	108	101
32) O=C(C1CCC(=O)N1CCc1ccccc1)N1CCC2(CC1)OCCO2 (stereo not given)
    104	3	125	93
33) c1ccc(-c2nnc(Cc3ccc4c(c3)OCO4)o2)cc1
    109&100	-35	88	88
34) C=C(C)Cn1c(SCC(=O)Nc2cccc(Cl)c2)nc2sc3c(c2c1=O)CCCC3
    101	8	104	101
35) COc1ccc(C(=O)NC(C)Cc2ccccc2)cc1 (stereo not given)
    /	-6	96	84
36) CCCOc1cccc(C2CCCCN(C)C2=O)c1 (stereo not given)
    106	-9	95	98
37) COc1ccc(NC(=O)CCCc2nnc3n(C(C)C)c(=O)c4sccc4n23)cc1Cl
    114	/	112	85
38) CC(=O)c1ccc(NS(=O)(=O)c2ccc3c(c2)NC(=O)CCS3)cc1
    103	/	106	88
39) CCc1ccc(NC(=O)N2CCN(c3nc4cccnc4s3)CC2)cc1
    102	-6	/	/
40) CCCN(CCC)S(=O)(=O)c1ccc2c(c1)N(CC(=O)NCc1ccc(F)cc1Cl)C(=O)CS2
    107	/	112	98
41) COc1cc(SC)ccc1C(=O)OCC(=O)c1ccccc1
    /	-15	99	100
42) Cc1cc(C)cc(-n2c(C)cc(/C=C(\C#N)c3ccccc3)c2C)c1
    107	/	89	85
43) C=Cc1ccc(Cn2nc3n(CC(C)C)c(=O)c4ccc(C(=O)NCC(C)C)cc4n3c2=O)cc1
    101	-40	/	/
44) COC(=O)c1ccc(/C=C2/SC(=O)N(C(C)C(=O)OC)C2=O)cc1 (stereo not given)
    109	-61	102	69
45) CCCc1nc(Sc2nncn2C)c2sc(=S)n(-c3ccccc3)c2n1
    /	2	68	75
46) COc1ccc(-n2nnnc2-c2c[nH]c3ccc(Cl)cc23)cc1
    98	-16	101	83
47) CCSc1nc2c(c(=O)[nH]1)C(c1ccccc1)C1=C(CCCC1=O)N2 (stereo not given)
    101	/	91	85
48) CC(=O)N1CCCc2cc(S(=O)(=O)N3CCC(C(=O)Nc4ccc(C)cc4Cl)CC3)ccc21
    96	/	111	92
49) CCNS(=O)(=O)c1cc(-c2ccno2)sc1C
    99	-29	/	/
50) CCc1ccc(NC(=O)Cc2c(C(=O)O)c(C)cn2C)cc1
    99	/	120	92
51) Cc1cccc(C(=O)n2nc(-c3cccnc3)nc2NCc2ccccc2)c1
    109	-2	95	77
52) CC(=O)N1CCN(Cc2ccccc2F)CC1
    103	-8	94	102
53) CCOC(=O)c1ccc(N2C(=O)c3n[nH]c(-c4ccco4)c3C2c2ccc(O)c(OC)c2)cc1 (stereo not given)
    111	10	74	68
54) Cc1cc(C)cc(NC(=O)Cn2nc(N3CCN(c4ccccc4)CC3)ccc2=O)c1
    102	/	81	77
55) O=C(CSc1nnc(-c2ccncc2)n1C1CCCCC1)Nc1ncc2c(n1)CC(c1ccccc1)CC2=O (stereo not given)
    103	-18	/	/
56) Cc1ccc2nc(C3CC(=O)N(c4ccccc4)C3)[nH]c2c1 (stereo not given)
    107	-18	/	/
57) COc1ccc(CCNCc2c(C(=O)O)c(C)n(Cc3cccc(Cl)c3)c2C)c(OC)c1OC
    102	-28	92	81
58) Cc1ccccc1-n1c2nc(C#N)c(C#N)nc2c2c1nc(C(C)C)n1c3ccccc3nc21
    159	-20	93	86
59) Cc1cc(=O)[nH]c(NCc2ccccc2)n1
    102	3	104	80
60) Cc1ccc(CNC(=O)CCN2C(=O)C(C)Oc3ccc(C)cc32)cc1 (stereo not given)
    107	7	85	91

The results go on.
Values run as follows: GIV Gai3 FP	HCMV NEC inh	Sa growth 42C	Sa growth 42C second temp
61) O=c1c(OCCc2ccccc2)c(-c2ccco2)oc2ccccc12
    115	-39	79	79
62) CC(C)(C)C(=O)CSc1nc2ccsc2c(=O)n1Cc1ccccc1F
    100	/	114	93
63) CCOC(=O)N1CCC(n2c(SCC(=O)NCc3ccccc3)nc3ccccc3c2=O)CC1
    100	-22	102	86
64) CCc1ccccc1NC(=O)CC1Nc2ccccc2NC1=O (stereo not given)
    /	-7	94	84
65) O=C(c1ccc2c(c1)N(Cc1ccccc1)C(=O)c1ccccc1S2(=O)=O)N1CCN(Cc2ccccc2)CC1
    104	-34	98	89
66) O=C(CCS(=O)(=O)c1ccccc1)Nc1ccc2sccc2c1
    101	7	107	96
67) CCNC(=O)c1c(NC(=O)Cc2coc3cc(C)cc(C)c23)sc2c1CCCC2
    106	1	119	89
68) O=C(NC(=O)c1ccc(-c2cccs2)s1)SCc1cccs1
    102	-4	103	111
69) O=C(c1ccc2c(c1)N(Cc1ccccc1)C(=O)c1ccccc1S2=O)N1CCN(Cc2ccccc2)CC1 (stereo not given)
    108	-6	101	89
70) Cc1c(CCC(=O)NCCc2ccccc2F)c(=O)oc2cc(O)ccc12
    100	-31	93	79
71) C/C(=C\c1nsc(Nc2ccccc2)n1)NCCc1ccccc1
    107	/	116	84
72) Cc1ccc(-c2noc(COC(=O)c3nn(-c4ccccc4C(F)(F)F)cc3O)n2)cc1
    /	-35	85	88
73) CCCn1c(=O)c2ccccc2n2c(SCC(=O)NCc3ccccc3Cl)nnc12
    101	-19	/	/
74) CC(O)Cn1c2ccccc2c2ccccc21 (stereo not given)
    106	5	88	107
75) CCC(=O)Nc1ccc(NC(=O)c2ccc(F)cc2)nc1
    102	-11	94	80
76) CCN(CC)CC1OCC2(CO1)COC(CN(CC)CC)OC2 (stereo not given)
    /	-12	85	96
77) COc1ccc(OC)c(-c2csc(-c3nnn(-c4ccc(F)cc4)c3N)n2)c1
    111	-9	/	/
78) COc1ccc(O)c(C(=O)c2cnn(C(=O)c3ccc4c(=O)n5c(nc4c3)CCC5)c2)c1
    /	-8	84	97
79) CCc1ccccc1Nc1nc(N)nc(Cn2cnc3ccccc32)n1
    /	-17	100	98
80) COc1ccc(CNS(=O)(=O)c2cnc(N)nc2)c(OC)c1
    106	/	118	84
81) N#C/C(=C(/O)c1cccc2ccccc12)c1nc2ccccc2[nH]1
    109	2	99	84
82) Cc1cccc(C)c1OCC(=O)N(Cc1ccc(Cl)cc1)CC1CCCO1 (stereo not given)
    106	-28	100	84
83) CC(C)(C)NC(=O)Cn1nc(-c2cc3c(s2)CCCC3)oc1=O
    105	-6	107	90
84) O=C(COC(=O)c1ccccc1)Nc1ccc(OC(F)F)cc1
    /	-14	101	91
85) CCOC(=O)C1=C(C)N=c2s/c(=C\c3cc(Br)cc(OC)c3O)c(=O)n2C1c1ccc(OC)cc1 (stereo not given)
    110	-31	/	/
86) O=C(Nc1ccc(F)cc1Cl)c1cnc(N2CCOCC2)c2ccccc12
    112	/	96	100
87) CC(=O)OCC1OC(OC(C)=O)C(NC(=O)C(C)C)C(OC(C)=O)C1OC(C)=O (stereo not given)
    97	7	122	94
88) COc1cc(CN(C)Cc2ccccc2)cc(OC)c1O
    /	0	86	95
89) COC(=O)CCn1c(=O)c2cccn2c2ccccc21
    99	/	100	89
90) O=S1(=O)C[C@H](N2CCOCC2)[C@@H](S(=O)(=O)c2ccc(F)cc2)C1
    99	-25	/	/

Following part:
Values run as follows: GIV Gai3 FP	HCMV NEC inh	Sa growth 42C	Sa growth 42C second temp
91) Cc1ccc(NC(=O)C2CCCN2S(=O)(=O)c2ccc3c(c2)CCCC(=O)N3)cc1Cl (stereo not given)
    106	/	112	98
92) OCc1cnc(SCc2ccccc2F)n1Cc1ccc(F)cc1
    102	/	96	89
93) Cc1cn(C2CC(NC(=O)C(C)(C)C)C(CO)O2)c(=O)[nH]c1=O (stereo not given)
    /	12	111	99
94) O=C(Nc1ccccn1)c1cc(-c2ccccc2)c(C(F)(F)F)s1
    98	-1	101	69
95) CC(C)Oc1cccc(C(=O)Nc2ccccc2)c1
    106	-31	94	97
96) Cc1cc(C(=O)COC(=O)C23CC4CC(CC(C4)C2)C3)c(C)n1-c1nccs1
    /	-32	80	86
97) O=C(c1ccccc1)N1c2ccccc2OC1c1ccc2c(c1)OCO2 (stereo not given)
    109	-12	99	93
98) N#C/C(=C\c1cccn1-c1ccc(Cl)cc1)S(=O)(=O)c1ccccc1
    100	2	101	112
99) COc1ccccc1NC(=O)Cc1nc(CSc2nncn2C(C)C)cs1
    /	1	94	94
100) CCCNC(=O)CN1C(=O)c2c(c3ccccc3n2C)C1c1ccc(OC)cc1 (stereo not given)
    104	/	102	88
101) COc1ccc(S(=O)(=O)N2CCCN(CC(=O)Nc3ccc(OC)cc3OC)CC2)cc1
    96	4	104	86
102) Cc1c(Cl)cccc1-c1ccc(CNCCCSc2nnnn2C)o1
    102	-28	112	67
103) Cc1cc(C)c(NC(=O)CCCn2c(C)c3cnn(-c4ccccc4)c(=O)c3c2C)c(C)c1
    110	9	88	76
104) CCOC(=O)c1c(C)c(NC(C)=O)c(C)n1C(C)=O
    /	-5	100	90
105) CCC(C(=O)Nc1cccc(C#N)c1)n1c(=O)c(-c2ccccc2NC(C)=O)nc2ccccc21 (stereo not given)
    98	11	105	74

Assay outcomes as filed in PubChem BioAssay.
